Source: PubChem BioAssay (National Center for Advancing Translational Sciences (NCATS))
VDR inhibitor – blocks the human vitamin D receptor | actives 0.93% (n = 400,000) | P11473 | VDR-SRC2-3 peptide fluorescence polarization, 2 h | AID 504847 | Potency, µM, for the others: max response, negative = inhibition, actives largely listed as inhibitors; active = well fitted inhibition curve with a large enough effect; inconclusive = small, poorly fitted or top-dose-only effect, or another doubt; inactive = no such curve, though single readings can be large or run the other way; also: series mostly up to about 120 µM
Target sequence (P11473 whole entry, looked up): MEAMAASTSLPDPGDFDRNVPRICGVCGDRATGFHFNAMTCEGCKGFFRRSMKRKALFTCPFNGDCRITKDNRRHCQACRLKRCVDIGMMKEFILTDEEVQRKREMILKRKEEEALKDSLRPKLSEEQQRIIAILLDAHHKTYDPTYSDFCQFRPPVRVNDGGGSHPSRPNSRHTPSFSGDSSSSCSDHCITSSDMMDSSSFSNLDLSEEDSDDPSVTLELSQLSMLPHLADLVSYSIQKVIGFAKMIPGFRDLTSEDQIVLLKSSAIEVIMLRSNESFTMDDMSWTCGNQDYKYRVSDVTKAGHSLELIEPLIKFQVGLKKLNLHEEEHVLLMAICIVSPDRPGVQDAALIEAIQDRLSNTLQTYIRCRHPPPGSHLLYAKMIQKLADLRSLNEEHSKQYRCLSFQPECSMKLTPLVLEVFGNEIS
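The screen uses fluorescence polarization to detect compounds that interfere with recruitment of the SRC2-3 coactivator peptide to VDR; plates are read after 2 h at room temperature.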
An asterisk follows results filed as active; ? = inconclusive; & = joins results of further samples; [ ] = another dose, or the depositor's remark. % is scaled to controls: 0 for no effect and ±100 for the full control effect; potency is read from the fitted curve at half-maximal effect.

SMILES | VDR inhibitor
CC1(C)OC(=O)C(=NNc2ccc(Br)cc2)C(=O)O1 | -9%
CC12CCC(C(=O)NCc3ccccn3)(OC1=O)C2(C)C (stereo not drawn) | -15%
Cc1ccccc1-c1nccc(NCc2cccs2)n1 | ?
O=C(CCS(=O)(=O)Cc1ccccc1)N1CCN(Cc2ccccc2)CC1 | -6%
COc1ccc(-c2nnc(SCC(=O)N3CCC(C)CC3)o2)cc1 | -15%
COc1ccc(CN/C=C2\CCCCC2=O)cc1 | -7%
CCOC(=O)CSc1nnc(CNC(=O)c2ccc(S(=O)(=O)N3CCCCC3)cc2)n1C | 0%
CCOC(=O)C1(Cc2ccc(OC)cc2)CCN(C(=O)C2CCCO2)CC1 (stereo not drawn) | -12%
O=C(COc1ccccc1)NCCc1csc(-c2ccc(Cl)cc2)n1 | 7%
CC1=C(C(=O)OCc2ccccc2)C(c2ccc(Cl)cc2)NC(=O)N1C (stereo not drawn) | -7%
O=C(CSc1nnc(-c2ccncc2)n1CC1CCCO1)Nc1ccccc1Cl (stereo not drawn) | -2%
CCCCN(CCCC)c1nc2ccccc2nc1NS(=O)(=O)c1ccc(NC(C)=O)cc1 | 9%
CCCn1c(CCNC(=O)c2ccco2)nc2ccccc21 | -6%
CCn1c2c(c(=N)c3ccccc31)CCC2 | 6%
Cn1c(=O)[nH]c(=O)c2c1ncn2CCN1CCOCC1 | 7%
N#C/C(=C\N1CCOCC1)c1ccccc1 | -5%
CCc1ccc(NC(=O)Cn2c(=O)n(Cc3nc(C)no3)c(=O)c3cc4c(cc32)OCO4)cc1 | 12%
Cc1cc(C)c(NC(=O)CSc2ccc3nnc(CCNC(=O)c4ccccc4)n3n2)c(C)c1 | -3%
COc1cccc(CNC(=O)C(Cc2ccccc2)n2cccc2)c1 (stereo not drawn) | 33%[activator]
COc1cccc(Oc2nccc(N(C)C)c2C#N)c1 | -4%
CCCCC1=CC2=CC(=O)C(C)(OC(=O)CC)C(=O)C2=CN1Cc1ccc2c(c1)OCO2 (stereo not drawn) | 0%
CCOC(=O)N1C(=O)[C@](c2ccc(Cl)cc2)(C(C)C)N1C(=O)OCC | -24%
Cn1c(N=Nc2ccc(N3CCOCC3)cc2)[n+](C)c2ccccc21 | ?
O=C(Cc1ccc(Cl)cc1)Nc1ccc2c(c1)C(=O)NC2=O | -1%
Nc1n[nH]c(-c2ccccc2[N+](=O)[O-])n1 | 18%
Cc1ccc2oc(-c3ccco3)nc2c1 | 14%&-8%
Cn1nnc2c(C(N)=O)ncn2c1=O | 1%&7%
Cc1ccc(Cl)c(OC(=O)C2CSC3(C)CCC(=O)N23)c1 (stereo not drawn) | -7%
COCc1c(C(=O)OCC(=O)N2CCCC2=O)oc2ccccc12 | 8%
Cn1c(=O)c2c(nc(N3CCOCC3)n2Cc2c(F)cccc2Cl)n(C)c1=O | 9%

Entries listed so far with a cyano group:
SMILES | VDR inhibitor
N#C/C(=C\N1CCOCC1)c1ccccc1 | -5%
COc1cccc(Oc2nccc(N(C)C)c2C#N)c1 | -4%

(further entries)
SMILES | VDR inhibitor
N/C(=N\OC(=O)C12CC3CC(CC(C3)C1)C2)c1ccncc1 | 9%
O=C(Nc1ccc(F)c(F)c1)C1CCN(S(=O)(=O)c2cccc3nonc23)CC1 | -18%
COc1ccc(C(=O)N2CCCC2(C#N)c2ccccc2)cc1[N+](=O)[O-] (stereo not drawn) | -3%
COc1ccc(-c2ccc(C(=O)O)c(=O)[nH]2)cc1 | -9%
Cn1cnnc1SCC(=O)Nc1nc(-c2ccccc2)cs1 | 7%
Cc1cccn2cc(CCNS(=O)(=O)c3ccc([N+](=O)[O-])cc3)nc12 | 8%
Cc1ccc(C(=O)Nc2ccc(C(=O)OCc3cc(=O)n4ccsc4n3)cc2)cc1 | 6%
O=C(CSc1nc2ncccc2[nH]1)Nc1ccc2c(c1)OCCO2 | -7%
CC1CCCCN1C(=O)CNCc1ccc(F)cc1 (stereo not drawn) | -14%
CCOc1cc(/C=N/NC(=O)C(O)(c2ccccc2)c2ccccc2)ccc1OC(=O)c1ccco1 | -5%
COc1ccc(NC(=O)N(O)C2(C#N)CCCCC2)cc1 | -13%
Cc1ccccc1Cc1c(C)nc2c(C(=O)NCc3ccc4c(c3)OCO4)cnn2c1C | 5%
CCOCCCNC(=O)CN1C(=O)COc2ccc(S(=O)(=O)N3CCC(C)CC3)cc21 | -8%
CNC(=O)c1cccc(NC(=O)CCCNC(=O)c2ccc(Cl)cc2)c1 | 1%
COc1ccc(N2CCN(C(=O)c3ccc(-c4ccccc4)cc3)CC2)cc1 | 14%
O=C1NC(=O)C2C1C(c1ccc([N+](=O)[O-])cc1)=NN2Cc1ccccc1 (stereo not drawn) | -2%
CN1CCN(C(=O)c2cnn(-c3ccc(F)cc3F)c2C2CCN(C(=O)OC(C)(C)C)CC2)CC1 | 2%
CCOc1ccccc1CNC(=O)c1cnc2sc(N3CCCCCC3)nn2c1=O | 6%
Cc1cc(NC(=O)CSc2nc(-c3ccccc3)nc3c2c(=O)n(C)c(=O)n3C)no1 | -5%
O=C(O)c1[nH]c2ccccc2c1NS(=O)(=O)Cc1ccccc1 | -5%
CCCCCCCCNc1ccccc1S(=O)(=O)NCc1ccccc1 | -20%
COCCCN(C(=O)Nc1ccccc1)C(C)c1ccncc1 (stereo not drawn) | 2%
COC(=O)c1ccc(OC(=O)c2cccnc2SC)cc1 | 5%
Fc1ccc(C(c2nnnn2Cc2ccco2)N2CCN(C3CCCCC3)CC2)cc1 (stereo not drawn) | 13%
O=C(NC1CCCCC1)C(c1ccccn1)N(C(=O)Cc1cccs1)c1ccc(Cl)cc1 (stereo not drawn) | -16%
COc1nc(-c2ccc(Cl)cc2)nnc1C | -4%
O=c1cnc2cnc(N3CCOCC3)nc2n1Cc1ccc(F)cc1 | -4%
C=CCn1c(C(C)NC(=O)COC)nc2ccccc21 (stereo not drawn) | -12%
O=C(NCCC1CCCCN1S(=O)(=O)c1ccccc1)C(=O)NCCN1CCOCC1 (stereo not drawn) | 6%
Cc1c(Cl)cccc1N=C1SCCN1C(=O)CN1C(=O)NC2(CCCC2)C1=O | -1%
Cc1ccccc1NC(=O)CSC(=O)c1ccccc1 | 79µM*
CSc1nnc(-c2cccc(C)c2)n1N | -3%
COc1ccc(N(C)C(=O)C2CCN(S(=O)(=O)c3cc(Br)cc4c3N(C(C)=O)CC4)CC2)cc1 | -6%
COc1cc(/C=N/NC(=O)C(Cc2c[nH]c3ccccc23)NC(=O)OCC(C)C)cc([N+](=O)[O-])c1O (stereo not drawn) | -11%
COc1ccc(C2=CC(=O)C[C@H](c3ccc4c(c3)OCO4)C2)cn1 | -4%
O=C(COC(=O)c1ccc(NS(=O)(=O)c2cccs2)cc1O)Nc1nc2ccccc2s1 | -8%
O=C(O)c1ccccc1NC(=O)c1ccccc1-c1ccccc1C(=O)O | -22%
Cc1[nH]n(C2=NCCS2)c(=O)c1N=Nc1cccc(C(F)(F)F)c1 | -1%
COc1cc(OC)cc(C(=O)N[C@H](C(=O)NCc2ccc(F)cc2)C(C)C)c1 | 1%
CCC(Sc1nc(C)cc(=O)[nH]1)C(=O)Nc1nc2c(s1)CCCC2 (stereo not drawn) | -5%

The list goes on; it opens with the 7 that closed the last part.
SMILES | VDR inhibitor
COc1cc(/C=N/NC(=O)C(Cc2c[nH]c3ccccc23)NC(=O)OCC(C)C)cc([N+](=O)[O-])c1O (stereo not drawn) | -11%
COc1ccc(C2=CC(=O)C[C@H](c3ccc4c(c3)OCO4)C2)cn1 | -4%
O=C(COC(=O)c1ccc(NS(=O)(=O)c2cccs2)cc1O)Nc1nc2ccccc2s1 | -8%
O=C(O)c1ccccc1NC(=O)c1ccccc1-c1ccccc1C(=O)O | -22%
Cc1[nH]n(C2=NCCS2)c(=O)c1N=Nc1cccc(C(F)(F)F)c1 | -1%
COc1cc(OC)cc(C(=O)N[C@H](C(=O)NCc2ccc(F)cc2)C(C)C)c1 | 1%
CCC(Sc1nc(C)cc(=O)[nH]1)C(=O)Nc1nc2c(s1)CCCC2 (stereo not drawn) | -5%
COc1ccc(CCNc2nc(-c3ccc(F)cc3)c(CC(=O)O)s2)cc1OC | 79µM*
CSc1nnc(C(C)c2ncc(C(F)(F)F)cc2Cl)n1C (stereo not drawn) | -8%
CCOC(=O)C1(Cc2ccc(OC)cc2)CCN(S(C)(=O)=O)CC1 | -7%
Cc1ccc(-c2nnc(SCC(=O)N/N=C/c3cccs3)n2-c2ccc(C)cc2)cc1 | 14%
Cc1cc(OC(=O)c2ccc(F)cc2)c([N+](=O)[O-])c(=O)[nH]1 | 10%
CC(=O)Nc1sc2c(c1C#N)CCCC2 | 1%
COc1ccc(-c2cccc3c2C2CC3CCN2C(=O)OCc2ccccc2)cc1 (stereo not drawn) | -5%
CCOC(=O)N1CCN(C(=O)c2noc(C(C)C)c2[N+](=O)[O-])CC1 | -10%
Cc1ccc(C)c(CN2C(=O)C3CCCN3c3ccc(C#N)cc32)c1 (stereo not drawn) | 15%
CCOC(=O)Nc1c(O)ccc2oc(C)c(-c3ccccc3)c12 | 15%
COc1ccc(C(=O)/C=C/Nc2ccc([N+](=O)[O-])cc2C)c(OC)c1 | 5%
Cc1ccccc1Sc1ccc(N)cn1 | -19%
C=CCNc1nc(NCc2ccccc2)nc(OCC)n1 | -20%
OC(COC(c1ccccc1)c1ccccc1)CN1CCc2ccccc2C1 (stereo not drawn) | -4%
Cc1c(NC(=O)c2ccc(N(C)S(C)(=O)=O)cc2)c(=O)n(-c2ccccc2)n1C | -9%
Cc1ccc(-c2noc(C3CCN(C(=O)Nc4ccc(C#N)cc4)CC3)n2)o1 | -3%
COc1ccc(C(=O)NN(c2ccccc2)c2ccccc2)cc1 | -5%
CCn1c(CCNC(=O)c2ccc(F)cc2)nc2ccccc21 | -6%
O=C(NCCCN1CCOCC1)c1c(F)c(F)c(F)c(F)c1F | 1%
C=CCn1c(SCc2cc(=O)n3cc(C)ccc3n2)nnc1-c1ccc(F)cc1 | -7%
O=C1c2ccccc2C(=O)N1CCOc1cccc(Br)c1 | -12%
COc1ccc(C2(C(=O)NC3CCCCC3)CCOCC2)cc1OC | 3%
O=C(CSCc1ccccc1)Nc1ccc(F)c(F)c1 | -11%
O=C(NC(=S)Nc1nc2ccccc2s1)c1ccco1 | 2%
CCC1Oc2ccc(C)cc2N(CC(=O)NCc2ccc(F)cc2)C1=O (stereo not drawn) | -2%
CC(=O)N1CSCC1C(=O)NNS(=O)(=O)c1ccccc1 (stereo not drawn) | 5%
COc1ccc(S(=O)(=O)NCCSc2ccccc2)cc1OC | 0%
c1cnc2ccc(C(c3nnnn3C3CCCCC3)N3CCN(C4CCCCC4)CC3)cc2c1 (stereo not drawn) | -3%
C(=N\n1cncn1)/c1ccc(N2CCOCC2)cc1 | -1%
COc1ccc(-c2cn(/N=C/c3ccc(Cl)cc3Cl)c(N)n2)cc1 | -11%

A second format for some results above:
mol,VDR inhibitor
C(=N\n1cncn1)/c1ccc(N2CCOCC2)cc1,-1%
CCC1Oc2ccc(C)cc2N(CC(=O)NCc2ccc(F)cc2)C1=O (stereo not drawn),-2%

The list goes on.
SMILES | VDR inhibitor
Cc1ccc(-c2ccc(S(=O)(=O)NCC3CCCO3)cc2)cc1 (stereo not drawn) | 6%
CCOC(=O)N1CCC(NC(=O)c2cc(C(=O)NC3CCN(Cc4ccccc4)CC3)ccc2CO)CC1 | 32%[activator]
Cc1cc(N2CCCCC2)nc2ccc(NC(=O)CCC(=O)N3CCN(c4cccc(Cl)c4)CC3)cc12 | -1%
Cc1ccc(N2CCC(N3CCN(C4CCCCC4)C(CCO)C3)CC2)cc1 (stereo not drawn) | 2%
COCCCN(C(=S)Nc1ccc(OC)cc1)C(C)c1ccncc1 (stereo not drawn) | -5%
COC(=O)c1c(-c2ccc(Cl)cc2)noc1N1CCN(c2ccccc2OC)CC1 | 12%
COCCNC(=O)CCC(=O)NNc1nc2ccccc2c2nc(-c3ccccc3)nn12 | -3%&-10%
COc1cc(C(=O)OC2CC[C@]3(C)C4CCC5[C@]6(O)CC(O)[C@]7(O)C(CN8CC(C)CCC8[C@]7(C)O)[C@]6(O)C[C@@]53O[C@]24O)cc(OC)c1OC (stereo partly drawn) | 0%
COc1ccc(Cn2c(CO)cnc2SCC(=O)Nc2cccc(NC(C)=O)c2)cc1 | 12%
Cn1c(=O)c2c(nc(NCc3ccccc3)n2Cc2ccc(Cl)c(Cl)c2)n(C)c1=O | -14%
CCN(Cc1ccccc1)c1ncnc2c1cnn2-c1ccc(F)cc1 | 11%
CC(C)c1ccc(S(=O)(=O)c2nnn3c2nc(N2CCOCC2)c2sccc23)cc1 | 7%
COc1ccc([N+](=O)[O-])cc1NC(=O)CCN1CCN(CCO)CC1 | -10%
CCn1ccnc1CN(C)Cc1cn(-c2cc(C)ccc2C)nc1-c1ccccc1 | -15%
CCOC(=O)c1cc2c(c(-c3ccccc3)n1)[C@@H](CCO)N(S(=O)(=O)C(C)(C)C)C2 | -21%
O=C(Nc1nnc(-c2ccc(F)cc2)s1)c1ccco1 | -15%
CCN(C(=O)C=Cc1ccco1)c1ccccc1 | -10%
CCOc1ccc(NCc2cccn2-c2nnc(N3CCC(C(=O)NCc4cccc(OC)c4)CC3)s2)cc1 | -18%
CC(=O)Oc1ccc(C2(c3ccc(OC(C)=O)cc3)C(=O)Nc3ccccc32)cc1 | 7%&5%
Cc1nn(-c2ccccc2)c(C)c1/C=N/Nc1nc2ccccc2[nH]1 | 3%
NC(=O)c1ccccc1OCC(=O)NS(=O)(=O)c1ccccc1 | -6%
Cc1cccc(NC(=O)N2CCN3CCCCC3C2)c1C (stereo not drawn) | 17%
COc1cccc(Cn2c(=O)n(-c3cc(C)cc(C)c3)c(=O)c3oc4ccccc4c32)c1 | 6%

An excerpt, so the mix of outcomes need not match the whole.
